# VDR inhibitor = inhibitors of human vitamin D receptor; P11473; VDR-SRC2-3 peptide fluorescence polarization, 2 h; Potency, µM, inactives show max response, negative = inhibition, usual class: inhibitors; hit rate 0.93% among 400,000; active = well fitted inhibition curve with a large enough effect; inconclusive = small, poorly fitted or top-dose-only effect, or another doubt; inactive = no such curve, though single readings can be large or run the other way; note: series mostly up to about 120 µM
# Target sequence (P11473 whole entry, looked up): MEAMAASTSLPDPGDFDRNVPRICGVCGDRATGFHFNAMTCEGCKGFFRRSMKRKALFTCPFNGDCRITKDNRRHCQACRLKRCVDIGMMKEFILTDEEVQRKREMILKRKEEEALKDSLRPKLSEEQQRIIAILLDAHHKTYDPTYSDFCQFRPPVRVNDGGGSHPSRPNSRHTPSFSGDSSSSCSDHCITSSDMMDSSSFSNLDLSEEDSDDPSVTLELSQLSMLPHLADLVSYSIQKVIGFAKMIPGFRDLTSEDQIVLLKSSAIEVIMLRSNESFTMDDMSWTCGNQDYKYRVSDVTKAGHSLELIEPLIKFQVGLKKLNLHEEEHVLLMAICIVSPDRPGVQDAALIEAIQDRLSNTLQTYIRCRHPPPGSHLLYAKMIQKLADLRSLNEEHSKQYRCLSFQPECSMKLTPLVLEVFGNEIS
#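 The screen uses fluorescence polarization to detect compounds that interfere with recruitment of the SRC2-3 coactivator peptide to VDR; plates are read after 2 h at room temperature.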
# Active calls of the source: *; u = inconclusive; & = joins results of further samples; [ ] = remark or other dose. % is set by controls: 0 for no effect and ±100 for the full control effect; potency is the fitted concentration of half-maximal effect. An excerpt; rates above refer to the full screens.
SMILES,VDR inhibitor
Cc1cc(OCC(=O)NCCc2ccc(S(N)(=O)=O)cc2)c2c(C)c(C)c(=O)oc2c1,5%
COC(=O)NC1CCC(NC(=O)OC)CC1 (configuration not stated),-12%
Oc1ccc2ccccc2c1SSc1c(O)ccc2ccccc12,10µM*
CC(C)c1ccc(NC(=O)C2CCCN(S(=O)(=O)c3ccc4[nH]c(=O)oc4c3)C2)cc1 (configuration not stated),-7%
Cc1cc(C)c(C)c(S(=O)(=O)N2CCC(C(=O)Nc3ccncc3)CC2)c1C,4%
Cc1cccc(NC(=O)CSc2nnc(-c3ccncc3)n2CC2CCCO2)c1 (configuration not stated),4%
C[C@H](NC(=O)c1[nH]cnc1C(=O)Nc1ccccc1)c1ccccc1,-2%
COc1cc2c(cc1OC)C(c1ccccc1)N(C(=O)c1ccco1)CC2 (configuration not stated),-16%
O=C(NC(=S)N(Cc1ccccc1)Cc1ccccc1)c1ccccc1F,-3%
CC(C)(NO)/C(=N/O)c1ccc(Br)cc1,-11%
O=C(c1ccc2ccccc2n1)N1CCN(S(=O)(=O)c2ccccc2)CC1,u
CCOC(=O)N1CCN(C(=O)C2CCN(Cc3ccc(OC)cc3OC)CC2)CC1,2%
CCCn1c2ccc(/C(C)=N\O)cc2c2cc(/C(C)=N/O)ccc21,1%
CCCNS(=O)(=O)c1ccc(CCC(=O)N2CCN(c3ccc(F)cc3)CC2)cc1,-1%
COc1ccc(NC(=O)c2ccccc2SC)cc1OC,-6%
CC[C@@H](C)[C@@H]1CN([C@@H](CN2CCC[C@H]2CN2C(N)=NC[C@H]2CC(C)C)C(C)C)C(=N)N1CCc1ccc(Cl)c(Cl)c1,4%
O=C(NCCCc1ccccc1)c1ccc([N+](=O)[O-])cc1Cl,20%
CCCCn1cc(S(=O)(=O)c2ccc(F)cc2)c(=O)c2ccccc21,-12%
O=C(NC1CCCCCC1)C1C2C=CC3(CN(Cc4cccnc4)C(=O)C13)O2 (configuration not stated),16%
O=C(COc1ccccc1Cl)Nc1ccc2oc(=O)ccc2c1,-1%
COc1cc(N=Nc2ccccc2C(=O)O)ccc1O,-7%
COc1ccc(C(CC(=O)N2CCCC2)c2c(OC)cc(OC)c3ccc(=O)oc23)cc1 (configuration not stated),-18%&3%
COc1ccc(CC(=O)OCC(=O)NCCNC(=O)COC(=O)Cc2ccc(OC)cc2)cc1,-10%
CCCCn1c(N)c(N(CC(C)C)C(=O)c2cccc(S(=O)(=O)N(C)c3ccccc3)c2)c(=O)[nH]c1=O,-14%
Cc1[nH]n(-c2ccc(Cl)cc2)c(=O)c1C(=O)c1ccccc1,25%
CN(CC(=O)Nc1ccc(F)cc1)C(=O)c1ccncc1,0%
Cc1cccc(N2CCN(c3ccc4cc(S(=O)(=O)N5CCCCC5)ccc4n3)CC2)c1C,-4%
O=C(OCC(=O)N1CCCc2ccccc21)c1cc(S(=O)(=O)N2CCOCC2)ccc1Cl,1%
CCCCN(Cc1ccco1)S(=O)(=O)c1csc(C(N)=O)c1,14%
COc1cccc(C(=O)C2CCCN(C(=O)CCc3scnc3C)C2)c1 (configuration not stated),-3%
CCOC(=O)C1CCN(C(=O)c2sc3nc(-c4ccccc4)cn3c2C)CC1,-14%
COc1cccc(/C=N/n2c(C)nc3ccccc3c2=O)c1O,-5%
Cc1cc(=O)oc2cc(OCC3CC(c4ccccc4Cl)=NO3)ccc12 (configuration not stated),14%
Cc1cc(=O)[nH]c(SCC(=O)NC2CCCCC2)n1,-9%
Clc1ccc2nc(C3CCN(Cc4nnnn4C4CCCCC4)CC3)[nH]c2c1,2%
C#Cc1ccc([C@@H]2C=C(C(=O)N3CCOCC3)O[C@H](OCCCCO)C2)cc1,-2%
CCOC(=O)c1oc2c(C)c(O)ccc2c(=O)c1-c1nncn1-c1ccccc1,-1%
CCC(C)Sc1ccc([C@@H]2[C@@H]3C(=O)N(C)C(=O)[C@@H]3[C@]3(C(=O)OC)CCCCN23)cc1 (some centres not stated),-2%
COc1ccc(CCNC(=O)CSc2nnc(CNC(=O)c3ccco3)o2)cc1OC,1%
N#CC1=C(SCc2ccccc2)NC(=O)CC1c1ccccc1 (configuration not stated),-4%

# In the list so far, these have a Cl atom:
SMILES,VDR inhibitor
CC[C@@H](C)[C@@H]1CN([C@@H](CN2CCC[C@H]2CN2C(N)=NC[C@H]2CC(C)C)C(C)C)C(=N)N1CCc1ccc(Cl)c(Cl)c1,4%
O=C(NCCCc1ccccc1)c1ccc([N+](=O)[O-])cc1Cl,20%
O=C(COc1ccccc1Cl)Nc1ccc2oc(=O)ccc2c1,-1%
Cc1[nH]n(-c2ccc(Cl)cc2)c(=O)c1C(=O)c1ccccc1,25%
O=C(OCC(=O)N1CCCc2ccccc21)c1cc(S(=O)(=O)N2CCOCC2)ccc1Cl,1%
Cc1cc(=O)oc2cc(OCC3CC(c4ccccc4Cl)=NO3)ccc12 (configuration not stated),14%
Clc1ccc2nc(C3CCN(Cc4nnnn4C4CCCCC4)CC3)[nH]c2c1,2%

# Remaining list, next part.
SMILES,VDR inhibitor
O=C(N/N=C/c1ccc([N+](=O)[O-])s1)C(O)c1ccccc1 (configuration not stated),-2%
CCN1CCN(C(=O)C(=O)c2cn(CC(=O)N3CCCC3)c3ccccc23)CC1,6%
CN(C)c1ccc(/C=N/NC(=O)C(=O)N2CCCCCC2)cc1,21%
C=CCn1c(=S)[nH]c2cc(C(=O)N3CCN(c4ccccc4OC)CC3)ccc2c1=O,7%
CCC/C(=N\NC(=O)c1ccccc1C)c1ccccc1,-5%
CCOc1ccccc1OCCC(=O)Nc1ccc(F)c(Cl)c1,-3%
O=C(CSc1nc2c(oc3ccccc32)c(=O)n1Cc1ccco1)Nc1ccccc1,0%
Cn1cc(C(=O)N/N=C/C2=C(N3CCOCC3)C(=C\c3ccccc3)/CC2)ccc1=O,6%
CCn1c(COc2cccc(C)c2C)nnc1SCC(=O)Nc1cc(C)on1,-4%
CN(Cc1ccc(F)cc1)C(=O)CNC(=O)C1CCCCC1,0%
Cc1cc(C)cc(NC(=O)C2CCN(S(C)(=O)=O)CC2)c1,-6%
CCN(CC)c1ccc(S(=O)(=O)N(CC)CC)cc1NC(=O)C1CCCC1,-4%
O=C(CCn1cncn1)N1CCN(S(=O)(=O)c2ccc(Cl)cc2)CC1,-11%
CCN(CC)c1ccc(/C=N/Nc2nn[nH]n2)cc1,-27%
COc1ccccc1NC(=O)c1ccccc1NC(=O)c1cccs1,4%
CC(Nc1nc(N2CCCCC2)nc2ccccc12)c1ccccc1 (configuration not stated),8%
COCCCNC(=O)c1nc2c(nnn2Cc2cc(C)ccc2C)c(=O)[nH]1,6%
COC(=O)c1ccccc1NC(=O)CN1CCN(C23CC4CC(CC(C4)C2)C3)CC1,13%
CCOC(=O)N1CCC2(CC1)NCCc1c2[nH]c2ccccc12,3%
O=C(CNCCC1=CCCCC1)Nc1ccc(N2CCCCCC2)cc1,-3%
CCOc1ccc(S(=O)(=O)N2CCN(Cc3ccccc3)CC2)cc1,-10%
COc1cc(OC)c(NC(C)C(=O)N2CCCC2)cc1Cl (configuration not stated),-8%
CCCCOc1ccccc1C1NC(=O)NC(C)=C1C(=O)OCc1ccco1 (configuration not stated),1%
CN1C(=O)C(O)(CC(=O)c2ccc3c(c2)OCO3)c2ccccc21 (configuration not stated),8%
Cc1cc(C)cc(NC(=O)Nc2ccc3ccccc3n2)c1,-3%
CCOC(=O)c1ccc(NC(=O)CC2NCCNC2=O)cc1 (configuration not stated),11%&7%
O=C(Nc1ccccc1)N1CCC(C(=O)N2CCN(c3ccccc3F)CC2)CC1,-17%
CC/C(=N\NC(=O)c1ccoc1C)c1ccc(C)o1,-17%
Cc1ccc(-n2c(=S)sc3c(=O)n(-c4ccccc4F)c(SCC(=O)O)nc32)cc1C,-1%
O=C(CN1C(=O)/C(=C/c2cccc(Cl)c2)SC1=S)NC1C=CS(=O)(=O)C1 (configuration not stated),-10%
CCc1cc(C(c2ccccc2OC)N2CCOCC2)c(NC(=O)c2ccccc2)s1 (configuration not stated),-12%
CSc1ccccc1C(=O)NCc1ccc(F)cc1,-4%
COc1cccc(C(=O)Nc2cc3c4c(c2)CC(=O)N4CCC3)c1,-1%
NC(=O)C1(N2CCCCC2)CCN(C(=O)NC23CC4CC(CC(C4)C2)C3)CC1,29%
O=C(CSCc1ccc(Cl)cc1Cl)Nc1ccccc1C(=O)Nc1ccc(C(=O)O)cc1,-5%
NS(=O)(=O)c1ccc(NC(=O)CN2CCCN(S(=O)(=O)c3ccc(F)cc3)CC2)cc1,-2%
O=C(C1CCC(=O)N(C2CC2)C1)N1CCN(c2ccc(Cl)cc2)CC1 (configuration not stated),-7%
N#Cc1c(-c2cccc(Br)c2)cc(-c2ccco2)[nH]c1=O,4%
CC(C)c1onc(C(=O)NCc2ccc(Cl)cc2)c1[N+](=O)[O-],-21%
COc1ccc(-c2cc(C(=O)NCCCn3ccnc3)c3ccccc3n2)c(OC)c1,-4%
COc1cc(Cl)c(C)cc1NC(=O)Cn1cc(S(=O)(=O)N2CCN(c3ccccc3F)CC2)c2ccccc2c1=O,-12%
CSCCC(NC(=O)c1ccccc1)C(=O)NC1CC1 (configuration not stated),22%
COc1ccc(OC)c(NC(=S)N2CCc3ccccc3C2)c1,21%
COC(=O)c1ccccc1NC(=O)C1CCCO1 (configuration not stated),-15%
CC(=O)c1c(C)nc(-c2cccc([N+](=O)[O-])c2)n1O,-14%
COC(=O)C(CC(C)C)N(Cc1cc(OC)cc(OC)c1)S(=O)(=O)c1ccccc1Br (configuration not stated),-15%
COc1ccc(C(=O)COC(=O)CCCN=C2NS(=O)(=O)c3ccccc32)c(OC)c1,2%
O=C(COC(=O)c1cccnc1Cl)c1ccc(OC(F)F)cc1,u
COc1cccc(C(=O)NCC(=O)N2CCC(C)CC2)c1,13%
Cc1ccc(C(=O)N/N=C\c2ccccn2)cn1,-11%
Nc1c(-c2nc(-c3ccc(F)cc3)cs2)c2ccccn2c1C(=O)c1ccc2c(c1)OCO2,-1%
CS(=O)(=O)N1CCc2cc(C(=O)NC3CC3)ccc21,5%
COC(=O)c1cc2occc2n1Cc1nc(-c2ccccc2Cl)oc1C,4%
Cc1c(Nc2nc3ccccc3nc2NS(=O)(=O)c2ccccc2)c(=O)n(-c2ccccc2)n1C,0%
N#CCSc1nc2c(c(=O)n1Cc1ccccc1)C1(CCCC1)Cc1ccccc1-2,0%
C/C(=N\O)c1ccc2c3c([nH]c2c1)CCCC3,9%
COc1ccc(-c2cc(C(=O)OC3CCOC3=O)c3ccccc3n2)cc1 (configuration not stated),-4%
COc1ccc(CCNC(=O)[C@H](C)NC(=O)N2CCn3c2nc2ccccc23)cc1OC,-15%
CCNC(=S)NNC(=O)CCn1cc(C)cn1,-13%
C=CCN(c1ccccc1)S(=O)(=O)c1cccc(C(=O)Nc2ccc(N3CCOCC3)cc2)c1,-4%

# No new results follow: entries from further up.
SMILES,VDR inhibitor
COc1cc(Cl)c(C)cc1NC(=O)Cn1cc(S(=O)(=O)N2CCN(c3ccccc3F)CC2)c2ccccc2c1=O,-12%
CSCCC(NC(=O)c1ccccc1)C(=O)NC1CC1 (configuration not stated),22%
COc1ccc(OC)c(NC(=S)N2CCc3ccccc3C2)c1,21%
COC(=O)c1ccccc1NC(=O)C1CCCO1 (configuration not stated),-15%
CC(=O)c1c(C)nc(-c2cccc([N+](=O)[O-])c2)n1O,-14%

# Going on with the list:
SMILES,VDR inhibitor
CCN(CC)CCNC(=O)C(=O)Nc1cc2c3c(c1)CC(=O)N3CCC2,4%
Cc1ccc(Cl)cc1N1CCN(Cc2cc3c(cc2O)CCC3)CC1,7%
NS(=O)(=O)c1ccc(CCn2c(=S)[nH]c3ccc(F)cc3c2=O)cc1,-13%
Cc1ccc[n+](CC(=O)Nc2cccc(Cl)c2)c1,4%
COc1ccc(Nc2nc(-c3cccc(Cl)c3)c3c(n2)-c2ccccc2OC3)cc1,5%
O=C(O)[C@@H]1CSC2c3ccccc3C(=O)N21 (some centres not stated),1%
CCOC(=O)c1c(NC(=O)C(C)Sc2cn(C)c3ccccc23)sc2c1CCC2 (configuration not stated),-6%
CCN(CC)c1nc2ccccc2nc1C(=O)Nc1cccc(C(C)=O)c1,9%
C=CCOC(=O)COc1ccc2c(C)c(CC)c(=O)oc2c1,15%
NC(=O)C1(N2CCCCC2)CCN(C(=S)Nc2ccc(S(N)(=O)=O)cc2)CC1,-10%
CC(C)(C)c1ccc(C(=O)NCc2nnc(SCC(=O)N3CCCc4ccccc43)n2-c2ccccc2)cc1,u
CC(OC(=O)c1ccc(NS(=O)(=O)c2ccc3[nH]c(=O)[nH]c3c2)cc1)C(N)=O (configuration not stated),10%
CCOc1ccc(CC(=O)NCCS(=O)(=O)N2CCN(c3ccccc3OC)CC2)cc1,6%
CCCCNS(=O)(=O)c1ccc2nc(-c3cccnc3)cc(C(=O)NCCCOC)c2c1,2%
Cc1cccc2cc(CN(C(=S)NCC(C)C)C3CCCC3)c(=O)[nH]c12,-5%
Clc1ccc(C[n+]2cc(-c3ccccc3)n3c2CCC3)cc1,-16%
Cc1cccc(Cn2ccc(-c3ccc(Cl)cc3)c(C#N)c2=O)c1,-3%
CCC1=NN(C(=O)Cc2ccc([N+](=O)[O-])cc2)C(O)(c2ccc(Br)cc2)C1 (configuration not stated),7%
O=C(NCCCN1CCN(c2ccc(F)cc2)CC1)Nc1ccc([N+](=O)[O-])cc1,23%
CCOc1ccc(S(=O)(=O)O)c2cccnc12,2%
CCOc1cccc(/C=N/NC(=O)c2ccc3c(c2)OCCO3)c1O,-28%
COc1ccc(N2C(=O)C3CCCN3C2c2ccc(Cl)cc2)cc1 (configuration not stated),-21%
Cc1ccc(SC(=O)c2c(C)noc2-c2cc(C)on2)cc1,u
COc1ccc2c(c1)CCc1cn[nH]c1-2,u
Cc1ccnc(NC(=O)c2ccoc2C)c1,-18%
Cc1ccc(S(=O)(=O)NC2CCCCC2)c(C)c1NS(C)(=O)=O,34%[activator]
CCOC(=O)c1ccc(Nc2c(-c3cccc(O)c3)nc3nc[nH]n23)cc1,7%
CN1CCN(S(=O)(=O)c2ccc(NC(=O)c3ccc([N+](=O)[O-])cc3)cc2)CC1,6%

# Screens (PubChem BioAssay)
